Source: PubChem BioAssay
ClpP mod: qHTS Assay for Activators of ClpP; ATP-dependent Clp protease proteolytic subunit (Bacillus subtilis (strain 168)), P80244; purified B. subtilis ClpP, FRET peptide cleavage, 20 min; Potency, µM (top dose mostly 57.5 µM), for the others: at the top dose activity change, negative = active; actives 1.9% (n = 340,000); AID 651965, 2013; active = well fitted falling curve with a large enough effect; inconclusive = small, poorly fitted or top-dose-only effect; inactive = no such curve, though single readings can be large or run the other way; further: the source files actives as falling curves though it sought activators and does not explain the sign; nearly all actives have a fitted effect of over 65% in size; many hits overshoot -100%
Target sequence (P80244 whole entry, looked up): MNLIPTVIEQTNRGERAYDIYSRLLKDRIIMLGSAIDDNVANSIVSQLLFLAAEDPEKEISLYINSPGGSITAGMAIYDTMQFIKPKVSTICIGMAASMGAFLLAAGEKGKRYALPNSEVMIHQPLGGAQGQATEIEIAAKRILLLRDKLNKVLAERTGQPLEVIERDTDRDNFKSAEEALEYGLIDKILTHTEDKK
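ClpP 10 microg/mL final, pH 8 Tris/KCl buffer with BSA, glycerol, Tween-20; compound pinned in; FRET-FV substrate; RT 20 min; Ex320/Em430; ΔFRET vs ADEP 5.8 microM, DMSO, no enzyme.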
An asterisk follows results filed as active; ? = inconclusive. Potency means the concentration at half of the fitted maximal effect. The list is partial; rates above refer to the full screens.

SMILES	ClpP mod
COc1ccccc1-c1nc2c(c(SCc3ccc(F)cc3Cl)n1)Cc1c(CO)cnc(C)c1O2	1.5%
COc1cccc(-n2c(=O)c3c(C)c(C(=O)N(C)C)sc3n(CC(=O)Nc3ccc(C)cc3Cl)c2=O)c1	-2.8%
Cc1ccc(S(=O)(=O)N2CCN(c3nc(N(C)c4cc(Cl)ccc4O)nc4ccccc34)CC2)cc1	-2.3%
Cc1ccc(/C=C(\C#N)c2nc(-c3cc4c(ccc5ccccc54)oc3=O)cs2)cc1	-6.9%
CCC(Sc1nc2ncccc2[nH]1)C(=O)Nc1cccc(OC)c1 (stereo unspecified)	2.7%
COc1cc(Cl)c(CC(=O)NO)cc1OC	1.8%
CCOc1ccccc1N(CC)C(=O)c1cc2c(=O)[nH]c3ccc(C)cc3c2s1	0.7%
CC1CCC(NC(=O)c2ccc3c(c2)N(Cc2ccccc2F)C(=O)c2ccccc2S3(=O)=O)CC1 (stereo unspecified)	-0.9%
CC(C)Cn1cc(NC(=O)N2CCN(c3ccc(F)cc3)CC2)c2ccccc2c1=O	3.8%
O=C(CCCCn1c(=O)c2ccccc2n(CC(=O)Nc2ccc(F)cc2F)c1=O)NCCc1ccccc1	-1.3%
CCOc1ccccc1NC(=O)Cn1c(=O)n(Cc2ccc(OC)cc2)c(=O)c2oc3ccccc3c21	-3.3%
O=c1c2c3c(sc2nnn1Cc1ccc(F)cc1)CCCC3	-2.9%
Cc1cccc(NC(=O)CSc2nc(-c3ccccc3Cl)nc3c2Cc2c(CO)cnc(C)c2O3)c1C	-3.1%
COc1cc(NC(=O)Cn2c(=O)n(Cc3ccco3)c(=O)c3sc4ccccc4c32)cc(OC)c1	-22%
CC1=C(C(=O)Nc2cc(Cl)ccc2C)C(c2cccs2)n2ncnc2N1 (stereo unspecified)	0.8%
CC(=O)N1CCc2c(sc3c2c(=O)n(-c2ccccc2)c(=O)n3CC(=O)c2ccc(Cl)cc2)C1	-3.6%
COc1ccc(NC(=O)CN2C(=O)C(=O)c3ccccc32)c(OC)c1	3.1%
COc1cc(Cl)c(C)cc1NC(=O)CSCc1nc(-c2ccc(OC)c(OC)c2)no1	-0.7%
CCN(CC)CCNC(=O)c1ccc(CSc2nc3ccncc3n2Cc2cccc(F)c2)cc1	0.4%
Cc1ccccc1Cn1c(SCc2ccc(C(=O)N3CCCCC3)cc2)nc2ccncc21	-9.6%
Cc1ccc(NC(=O)CSc2nc(C3CCCC3)nc3c2c(=O)n(C)c(=O)n3C)c(C)c1	-2.3%
Cc1nc2nc(NCc3ccc(Cl)cc3)[nH]n2c(=O)c1Cc1ccccc1	-2.4%
CSc1nn(Cc2ccc(Br)cc2)c(N(C(C)=O)C(C)=O)c1S(=O)(=O)c1ccccc1	-1.1%
CCN(CC)S(=O)(=O)c1ccc2c(c1)c(=O)c(C(=O)N1CCN(c3ccc(F)cc3)CC1)cn2C	-2.7%
CSc1ncc(Cl)c(C(=O)Nc2c(C(=O)c3ccc(C)cc3)oc3ccccc23)n1	-0.4%
Nc1ncnc2c1ncn2COC(CO)CO	-1.2%
COc1cc2nc(NCCc3ccccc3)n3nc(-c4cccnc4)nc3c2cc1OC	-4.2%
Cc1c(C(=O)N(C)C)sc2c1c(=O)n(-c1ccc(F)cc1)c(=O)n2Cc1ccccc1C#N	1.2%
Cc1cccc(Nc2nc(C)nc(N)c2S(=O)(=O)c2ccccc2)c1	3.6%
CCCS(=O)(=O)N1CC(=O)N(c2cccc(F)c2)C(C)(C(=O)NC2CCCCCC2)C1 (stereo unspecified)	-0.2%
CC1Cc2ccccc2N1C(=O)CSc1nnc(-c2cccc(Cl)c2)o1 (stereo unspecified)	-2.1%
Fc1ccccc1N1CCN(c2ncc3c(n2)CCN(Cc2ccc(Br)s2)C3)CC1	-6.4%
CCOc1ccc(CCNC(=O)C2CCN(C(=O)c3cc4sccc4n3CC)CC2)cc1OCC	0.8%
COc1cccc(NC(=O)/C(C#N)=C/c2ccc(-c3ccc(C)cc3)o2)c1	-1.7%
CCCCC(=O)Nc1cccc(-c2nc3ccccc3s2)c1	-0.7%
CCn1c(=O)cc(SCC(=O)NCCc2ccc(OC)cc2OC)c2ccccc21	-6.5%
COc1cccc(NC(=O)C2CCCN(c3nnc(-n4c(C)ccc4C)s3)C2)c1 (stereo unspecified)	-1.0%
Cc1nn(-c2ccccc2)c2c1N(CC(=O)N1CCN(c3ccc(F)cc3)CC1)C(=O)CS2	1.8%
CCC(=O)N1CCCc2cc(S(=O)(=O)N3CCC(C(=O)NC4CCCCC4)CC3)ccc21	2.1%
CCOC(=O)c1c(Nc2cccc(O)c2)nnc(-c2ccccc2)c1-c1ccccc1	-0.6%
CC1CCc2c(sc(NC(=O)CCCOc3ccccc3)c2C(N)=O)C1 (stereo unspecified)	4.0%
CCn1c(CNC(=O)C23CC4CC(CC(C4)C2)C3)nnc1SCC(=O)Nc1ccc(OC)cc1	1.9%
COc1cccc(NC(=O)CSc2nc3ccc(NC(=O)c4cccs4)cc3s2)c1	?
CCOC(=O)c1sc2ccccc2c1S(=O)(=O)N1CCN(c2ccccc2F)CC1	-0.6%
CC(Oc1ccc(F)cc1)C(=O)Nc1cc(-c2ccc(F)c(F)c2)no1 (stereo unspecified)	2.0%

Given with bars between the fields: part of the list above
molecule | ClpP mod
COc1cc(NC(=O)Cn2c(=O)n(Cc3ccco3)c(=O)c3sc4ccccc4c32)cc(OC)c1 | -22%
CC1=C(C(=O)Nc2cc(Cl)ccc2C)C(c2cccs2)n2ncnc2N1 (stereo unspecified) | 0.8%
CC(=O)N1CCc2c(sc3c2c(=O)n(-c2ccccc2)c(=O)n3CC(=O)c2ccc(Cl)cc2)C1 | -3.6%
COc1ccc(NC(=O)CN2C(=O)C(=O)c3ccccc32)c(OC)c1 | 3.1%
COc1cc(Cl)c(C)cc1NC(=O)CSCc1nc(-c2ccc(OC)c(OC)c2)no1 | -0.7%

Looked up one by one from the entries so far, four records:
SMILES	ClpP mod
Cc1nn(-c2ccccc2)c2c1N(CC(=O)N1CCN(c3ccc(F)cc3)CC1)C(=O)CS2	1.8%
COc1cccc(NC(=O)/C(C#N)=C/c2ccc(-c3ccc(C)cc3)o2)c1	-1.7%
Fc1ccccc1N1CCN(c2ncc3c(n2)CCN(Cc2ccc(Br)s2)C3)CC1	-6.4%
CCC(=O)N1CCCc2cc(S(=O)(=O)N3CCC(C(=O)NC4CCCCC4)CC3)ccc21	2.1%

More results
SMILES	ClpP mod
COc1ccc(-c2nc(C)c(CCNC(=O)c3cccs3)s2)cc1	4.4%
Cc1ccc(C(C)C)c(OCCSc2nc(-c3ccccc3F)nc3cc(=O)[nH]n23)c1	46%
O=C(c1ccccc1Br)N(Cc1ccccc1F)C1CCS(=O)(=O)C1 (stereo unspecified)	1.2%
CN(C)c1ccc(CNC(=O)C2CCN(c3nnc(-n4cccc4)s3)CC2)cc1	-2.0%
O=C(CCS(=O)(=O)c1ccc2c(c1)NC(=O)CO2)Nc1cccc(C(F)(F)F)c1	-0.4%
CC(C)CSc1oc(-c2ccco2)nc1S(=O)(=O)c1ccc(Br)cc1	?
COc1ccc(NC(=O)CSc2oc(-c3ccco3)nc2S(=O)(=O)c2ccc(Br)cc2)c(OC)c1	1.3%
CCn1c(=N)c(C(=O)NC2CCCC2)cc2c(=O)n3ccccc3nc21	4.1%
COc1cccc(Cn2nc(SC)c(S(=O)(=O)c3ccccc3)c2N(C(C)=O)C(C)=O)c1	-1.0%
CCOc1ccc(C(=O)OCc2cc(=O)n3nc(C(C)C)sc3n2)cc1	0.0%
CCOc1ccc(CC(=O)Nc2c(C(=O)c3ccccc3)oc3ccc(OC)cc23)cc1OCC	-1.9%
Cc1ccc(CNC(=O)CN2C(=O)C3CCCCN3c3ccc(C(=O)N(C)C)cc32)cc1 (stereo unspecified)	-4.4%
COc1cccc(-n2c(=O)c3sccc3n(Cc3cc(=O)n4cc(Cl)ccc4n3)c2=O)c1	4.2%
Cc1cccc(NS(=O)(=O)c2ccc3c(c2)C(C)(C)C(=O)N3C)c1	1.5%
CCC(C(=O)NCc1cccc(Br)c1)n1nc(C)c2c(C)n(-c3ccccc3)nc2c1=O (stereo unspecified)	-2.1%
O=C(NCc1ccc(F)cc1)c1cnc(N2CCCCC2)c2ccccc12	-16%
COc1cccc(NC(=O)c2sc3nc(C)c(C(=O)Nc4ccc(C)cc4C)c(-c4cccs4)c3c2N)c1	-3.8%
Cc1ccc(OC(=O)CSc2nnc(-c3cccs3)o2)cc1C	77%
Cc1nn(C)c(Cl)c1S(=O)(=O)N(Cc1ccco1)c1ncnc2nc[nH]c12	-2.4%
COc1ccc(C2=C(C)C(=O)N(Cc3ccc(C(=O)NCc4ccc(C)cc4)cc3)S2(=O)=O)cc1	-16%
CCOc1ccccc1NC(=O)c1cc(=O)c2ccc(C)cc2o1	-2.0%
COc1cccc(NC(=O)Cn2c(=O)n(Cc3ccc(C(=O)NCc4ccc(C)cc4)cc3)c(=O)c3ccccc32)c1	-9.1%
Cc1cc(N2CCN(c3ccccc3)CC2)n2cnnc2n1	1.6%
COc1ccc(-c2cc(OC(=O)c3cccc(Cl)c3)c3c(C)oc(C)c3c(=O)c2)cc1OC	0.6%
CCc1ccc(C2c3c(n[nH]c3C)C(=O)N2c2ccc(C)cc2)cc1 (stereo unspecified)	1.3%
C=Cc1ccc(Cn2c(C)c(CNCCc3ccccc3C)c(C(=O)O)c2C)cc1	-1.5%
Cc1ccc(OCC(=O)Nc2ccc(O)c(-c3nc4cc(C)c(C)cc4o3)c2)cc1	-5.7%
Cc1ccc(C)c(NC(=O)CSc2nncn3c2cc2sccc23)c1	1.3%
O=C(c1ccc(Br)cc1)N1CCN(CCc2ccncc2)CC1	0.5%
CCOC(=O)c1cc2c(=O)n3ccccc3nc2n(CC2CCCO2)c1=NC(=O)c1cccc(C)c1 (stereo unspecified)	4.4%
COc1ccc(N2CCN(c3ccc(-c4nc(-c5ccccc5C)no4)cc3[N+](=O)[O-])CC2)cc1	-0.6%
Cn1c(=O)c2sccc2n2c(CCC(=O)N3CCN(c4cccc(Cl)c4)CC3)nnc12	1.7%
CCN1CCN(Cc2nc3cc(NC(=O)c4cccc([N+](=O)[O-])c4)ccc3n2CC)CC1	-2.7%
O=C(CSc1nc(O)c(C/C=C/c2ccccc2)c(=O)[nH]1)Nc1cccc(F)c1	-2.6%
COc1ccc(-n2c(/C=C/c3ccccc3F)nc3cc(OC)c(OC)cc3c2=O)cc1Cl	?
CC(=O)N(Cc1cccnc1)c1nc2cc(C)cc(C)c2s1	2.7%
CCOC(=O)c1cc2c(=O)n3ccccc3nc2n(CCCOC)c1=NC(=O)C(C)Oc1ccccc1 (stereo unspecified)	4.4%
Cc1ccc(NC(=O)c2ccc(F)c(S(=O)(=O)N3CCc4ccccc4C3)c2)cc1F	-22%
COc1cccc(Cn2c(=O)n(CC3CCC(C(=O)N4CCOCC4)CC3)c(=O)c3sccc32)c1 (stereo unspecified)	0.9%
COCCc1nn2c(=O)cc(COC(=O)COc3ccc(F)cc3)nc2s1	-6.3%
CCOc1ccc2c(c1)NC(c1cccs1)=NC(c1ccc(F)cc1)=N2	0.9%
CCn1c(C(=O)N2CCC(C(=O)NCCc3ccc(OC)cc3OC)CC2)cc2sccc21	0.9%
COc1ccccc1N1CCN(c2nc3ccc(C(=O)c4ccccc4)cc3n3c(C)nnc23)CC1	1.1%
COc1ccc(C)cc1NS(=O)(=O)c1ccc2c(c1)CCCN2C(C)=O	0.2%
O=C(NCCc1ccccc1)c1ccc2c(c1)N(Cc1ccc(F)cc1Cl)C(=O)CS2	-0.4%
CC(C)c1ccc2oc(-c3cc(NC(=O)c4cccnc4)ccc3Cl)nc2c1	?
Cc1cc(C)c(NC(=O)Cn2nc(-c3ccncc3)ccc2=O)c(C)c1	0.5%
N#Cc1ccc(S(=O)(=O)N2CCN(c3nc(-c4cccs4)nc4ccccc34)CC2)cc1	4.3%
Cc1ccc(Cl)cc1N1CCN(C(c2ccc(F)cc2)c2nnc(-c3ccccc3)o2)CC1 (stereo unspecified)	-0.9%
CCC(=O)Nc1ccc2nc(SCc3ccccc3)sc2c1	-3.5%
COc1ccccc1CNc1nc2ccccc2c2nc(-c3cccnc3)nn12	-5.3%
COc1ccc(C2=C(C)C(=O)N(Cc3ccc(C(=O)Nc4cc(C)ccc4C)cc3)S2(=O)=O)cc1	3.8%
Cc1c(Cl)cccc1-n1ncc(C(=O)N2CCN(c3ncccn3)CC2)c1C1CCN(C(=O)OC(C)(C)C)CC1	-7.0%
CC1C(=O)Nc2ccc(S(=O)(=O)N3CCCCC3)cc2NC1=O (stereo unspecified)	-3.7%
Cc1cc(C)c2c(-n3cccc3)c(C(=O)NCCc3ccccc3)sc2n1	-1.9%
COc1ccc(S(=O)(=O)N(Cc2nc(-c3ccc(Cl)cc3)no2)C2CCCCC2)cc1	-2.8%
CCCOc1ccc(-c2nonc2NC(=O)c2oc3ccc(C)cc3c2C)cc1OCCC	0.5%
Cc1ccc2[nH]c(=O)c(CN(CCCO)Cc3nnnn3Cc3ccccc3)cc2c1	-21%
COc1ccccc1/C=C/c1nc(C#N)c(NCc2ccccc2)o1	4.7%
CC(C)OCCCn1c(=O)c2ccccc2n2c(-c3ccc(F)c(F)c3)nnc12	-24%
Cc1ccc(NC(=O)CCc2c(C)nc3c(-c4ccc(F)cc4)c(C)nn3c2C)cc1F	1.4%
COc1ccccc1CNC(=O)c1cnc(N2CCCC2)nc1C	?
